# RE007 growth inh: less growth of the S. pombe RE007 Vpr strain | S. pombe RE007 Vpr strain, BacTiter-Glo ATP luminescence, 24 h; control for the full effect not named in the record | Potency, µM (top dose mostly 92.2 µM), for the others: top-dose activity change, negative = less growth | 360,000 compounds, 0.21% hits; active = well fitted falling curve with a large enough effect; inconclusive = small, poorly fitted or top-dose-only effect; inactive = no such curve, though single readings can be large or run the other way;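 note: % is set by controls: 0 for no effect and ±100 for the full control effect; nearly all actives have a fitted effect of over 50% in size; the assay follows cell death caused by Vpr and the record does not say whether a fall means rescue or toxicity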
#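 Fission yeast RE007 carrying one integrated HIV-1 vpr copy, seeded at OD 0.01 in PMG+AL medium with 23 nL pinned compound. Grown 24 h at 30 degrees; viability read by BacTiter-Glo luminescence after 5 min.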
# Lassa entry inh: blocks Lassa virus binding to or entry into cells; 300,000 compounds, 1.2% hits; Lassa virus pseudotype entry inhibition, cell reporter; control for the full effect not named in the record; AID 540256; Potency, µM (series often up to 37.9 µM), for the others: top-dose activity change, negative = inhibition, most hits filed as inhibitors; active means well fitted inhibition curve with a large enough effect; inconclusive means small, poorly fitted or top-dose-only effect, or effect the other way; inactive means flat fitted curve, though single readings scatter; tested in HEK293 cells; note: % is set by controls: 0 for no effect and ±100 for the full control effect; nearly all actives have a fitted effect of over 50% in size; luciferase read-out
# SARS PLpro yeast: SARS-CoV PLP inhibition in yeast; S. cerevisiae expressing SARS-CoV PLpro, growth rescue; control for the full effect not named in the record; 330,000 compounds, 0.19% hits; Potency, µM (titrated, usually from 32.9 µM), without a hit: top-dose activity, positive = growth rescue; AID 485353; note: 0% is about no effect; nearly all actives have a fitted effect of over 55% in size; growth read by luminescence after 48 h
# Cruzain inh noDet: cruzain (T. cruzi) inhibition without detergent. Potency, µM, for the others: max response, negative = inhibition, most hits filed as inhibitors. purified cruzain, Z-FR-AMC fluorescence, no detergent. 200,000 compounds, 2.3% hits. P25779; active = well fitted curve in the direction sought with a large enough effect; inconclusive = small, poorly fitted or top-dose-only effect, or another doubt; inactive = no such curve, though single readings can be large; an effect the other way counts as inactive or inconclusive;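 note: plate controls were enzyme without inhibitor for no effect and buffer without enzyme for full effect; nearly all actives have a fitted effect of over 40% in size; top concentration of the series not given in the record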
# Target sequence (P25779 123-467 limits assumed): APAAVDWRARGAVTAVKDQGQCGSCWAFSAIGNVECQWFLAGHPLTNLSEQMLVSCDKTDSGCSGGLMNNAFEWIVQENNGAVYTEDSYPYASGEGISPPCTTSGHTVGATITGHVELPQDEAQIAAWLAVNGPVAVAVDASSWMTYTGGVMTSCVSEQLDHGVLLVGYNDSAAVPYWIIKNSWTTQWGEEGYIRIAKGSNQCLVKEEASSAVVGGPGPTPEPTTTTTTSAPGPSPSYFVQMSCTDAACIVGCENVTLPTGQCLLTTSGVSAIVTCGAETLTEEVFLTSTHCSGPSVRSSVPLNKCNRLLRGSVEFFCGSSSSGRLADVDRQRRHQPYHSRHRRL
#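 Detergent-free condition (0.00005% Triton X-100) in acetate buffer pH 5.5 with DTT. 1.5 nM enzyme and compound were pre-mixed 15 min, then 2 uM Z-FR-AMC substrate added; reaction progress from fluorescence change between first and third reads (60 s).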
# NS1 inh: influenza NS1 inhibition; S. cerevisiae slowed by influenza A NS1, growth recovery by OD600; Potency, µM (series often up to 46.1 µM), without a hit: at the highest dose activity, positive = more growth; 270,000 compounds, 0.4% hits; AID 2326; note: actives are rising curves; nearly all actives have a fitted effect of over 50% in size
#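 In this qHTS, NS1 from influenza A is expressed in budding yeast, where it slows growth. Cells are switched from glucose to 2% galactose medium (pH 6.0, -URA), treated with compound, and growth recovery is read at OD600.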
# MARV entry inh: inhibitors of Marburg virus binding or cell entry; Marburg virus pseudotyped entry inhibition, cell reporter; control for the full effect not named in the record; about a third of the inactives were read at about 46 µM; Potency, µM (highest dose often 37.8 µM), inactives show at the top dose activity change, negative = inhibition, most hits filed as inhibitors; 300,000 compounds, 1.8% hits; AID 540276; active = well fitted inhibition curve with a large enough effect; inconclusive = small, poorly fitted or top-dose-only effect, or effect the other way; inactive = flat fitted curve, though single readings scatter; tested in HEK293 cells; about a fifth of its hits are not listed in these tables; note: % is set by controls: 0 for no effect and ±100 for the full control effect; luciferase read-out
# Cruzain inh Det: blocks cruzain activity in presence of Triton detergent; P25779; purified cruzain, Z-FR-AMC fluorescence, 0.01% Triton; Potency, µM, inactives show max response, negative = inhibition, most hits filed as inhibitors; AID 1478; 200,000 compounds, 0.43% hits; active = well fitted curve in the direction sought with a large enough effect; inconclusive = small, poorly fitted or top-dose-only effect, or another doubt; inactive = no such curve, though single readings can be large; an effect the other way counts as inactive or inconclusive;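 note: plate controls were neutral wells for no effect and buffer without enzyme for full effect; nearly all actives have a fitted effect of over 40% in size; top concentration of the series not given in the record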
#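 In this qHTS format, compounds are incubated with 1.5 nM cruzain for 15 min at room temperature before 2 uM Z-FR-AMC is added. Release of AMC is followed at 360/450 nm, and progress is taken as the 60 s fluorescence difference.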
# 2A StopGo: FMDV 2A StopGo reporter, luciferase signal. human cells with a luciferase reporter of 2A StopGo recoding; control for the full effect not named in the record. Potency, µM (doses to about 57.9 µM), inactives show at the highest dose signal change, negative = less light. 410,000 compounds, 1.2% hits; active = well fitted falling curve with a large enough effect; inconclusive = small, poorly fitted or top-dose-only effect; inactive = no such curve, though single readings can be large or run the other way; tested in HEK293T cells; note: % is set by controls: 0 for no effect and ±100 for the full control effect; nearly all actives have a fitted effect of over 45% in size; luciferase light after 4 h
# Starred values were filed as active, the others as inactive; ? = inconclusive; / = not tested or not shown; & = joins results of further samples; [ ] = remark or other dose. Unless noted, calls come from the whole dose curve; as a rule, active means well fitted rising curve with a large enough effect; inconclusive means small, poorly fitted or top-dose-only effect; inactive means no such curve, though single readings can be large or run the other way. Potency is the fitted concentration of half-maximal effect.
SMILES,RE007 growth inh,Lassa entry inh,SARS PLpro yeast,Cruzain inh noDet,NS1 inh,MARV entry inh,Cruzain inh Det,2A StopGo
O=C(CSc1nnc(CNC(=O)c2c(F)cccc2Cl)o1)NC1CCCC1,10.7%,?,2.0%,/,-1.6%,-2.8%[46.1 µM],/,3.5%
O=C(Cn1c2ccccc2c2nc3n(c(=O)c21)CCS3)N1CCCC1,-2.5%,-11.2%[46.1 µM],3.9%,/,25.7%,5.9%[46.1 µM],/,31.0%[activator]
Cn1c(N)c(C(=O)COC(=O)Cc2ccc(Cl)cc2)c(=O)n(C)c1=O,2.9%,0.9%,1.7%,/,/,-2.8%,/,-4.1%
CCOCCc1nn2c(=O)cc(COC(=O)c3ccc(NC(=O)c4ccc(F)cc4)cc3)nc2s1,/,?,/,4.3%,/,/,-0.4%,-18.7%
CCOC(=O)N1CC(C)N(C(=S)Nc2ccccc2)CC1C (stereo not drawn),-3.5%,-7.9%[46.1 µM],/,/,/,5.8%[46.1 µM],/,1.3%
CCC(C(=O)Nc1cc(Cl)ccc1OC)n1nc(-c2ccccc2)ccc1=O (stereo not drawn),/,-13.9%[46.1 µM],/,15.3%,/,-23.0%[46.1 µM],-6.7%,-18.6%
NS(=O)(=O)c1cccc(NC(=O)CCC(=O)c2cccs2)c1,5.3%,/,1.3%,/,4.4%,/,/,10.8%
Cc1cc(C)nc(SCC(=O)Nc2nccs2)n1,7.3%,26.8%[46.1 µM],-4.4%,/,-15.0%,-1.5%[46.1 µM],/,6.3%
C=CCN1C(=O)/C(=C2/Sc3ccccc3N2C)SC1=Nc1c(C)n[nH]c1C,9.3%,12.7%,-3.9%,4.4%,3.7%,-23.6%,-1.0%,-5.7%
CC1(CC(=O)NNC(=O)Nc2ccccc2)OCCCO1,-10.4%,-1.5%,-1.2%,/,3.9%,7.5%[46.1 µM],/,-13.5%
NC(=O)c1ccccc1NC(=O)CN1CCCCCC1,6.4%,?,1.5%,/,9.5%,0.4%[46.1 µM],/,7.1%
CCN1CCN(C(=O)C2CCC(=O)N(Cc3cccc(C(F)(F)F)c3)C2)CC1 (stereo not drawn),2.5%,-0.5%,-1.2%,/,3.4%,-1.2%,/,-15.8%
CCCc1cc(C(N)=O)c(NC(=O)c2cc(C)on2)s1,-2.6%,2.8%,-4.7%,-19.5%,-138.8%,-0.7%,-9.5%,10.9%
COc1ccc2[nH]c(=O)c(CN(C(=O)c3ccccn3)c3ccccc3)cc2c1,-9.6%,9.6%,-9.2%,-8.1%,-3.3%,-3.5%,1.0%,-15.2%
CC(C)OP(=O)(OC(C)C)C(O)c1ccc(Br)cc1 (stereo not drawn),11.1%,4.4%,-12.8%,4.8%,-1.0%,-22.0%,-2.8%,-21.0%
Nc1nnc(SCC(=O)NC23CC4CC(CC(C4)C2)C3)s1,6.6%[3.69 µM],-3.5%,3.3%,6.9%,-5.8%,1.6%&1.6%,0.7%,-5.3%
CCc1ccc(/C(C)=N/NS(=O)(=O)c2ccc(OC)cc2)s1,-1.3%,/,-1.7%,/,-12.1%,/,/,5.3%
CCOC(=O)c1c(C)nc2ccccn12,5.7%,9.7%,-10.4%,-1.3%,-85.2%,9.8%,0.8%,-20.1%
COc1cc(C2CC(=O)N(c3ccc(C)c(Cl)c3)C3=C2C(=O)OC3)cc(OC)c1OC (stereo not drawn),/,7.8%[46.1 µM],/,5.2%,/,4.8%[46.1 µM],0.6%,0.0%
Cc1ccc(C)c(NC(=O)Cn2ccn(-c3ccc(F)cc3)c(=O)c2=O)c1,/,7.0%[46.1 µM],/,-16.8%,/,/,-4.3%,-0.9%
O=C(NC1CC1(c1ccccc1)c1ccccc1)c1ccccc1 (stereo not drawn),-7.6%,-22.3%,/,/,/,3.2%,/,-22.1%
COc1ccccc1OCc1n[nH]c(=S)n1Cc1ccccc1,13.5%,/,-4.1%,/,/,3.3%[46.1 µM],/,-18.1%
NC(=O)CC(NC(=O)Cc1cccc2ccccc12)c1ccc(NC2CCCCCC2)c([N+](=O)[O-])c1 (stereo not drawn),0.7%,/,-0.4%,/,2.0%,/,/,-5.2%
CCOC(=O)Cn1c(=O)c2c(nc(N3CCOCC3)n2C)n(C)c1=O,14.2%,17.2%,5.1%,1.5%,4.9%,24.4%,1.8%,7.8%
CCOc1ccccc1NC(=O)c1cc(-c2ccncc2)nc2c(Cl)cccc12,17.8%,?,0.7%,/,10.0%,?,/,?

# One compound at a time (already shown). Order of values: RE007 growth inh, Lassa entry inh, SARS PLpro yeast, Cruzain inh noDet, NS1 inh, MARV entry inh, Cruzain inh Det, 2A StopGo
# `CCOCCc1nn2c(=O)cc(COC(=O)c3ccc(NC(=O)c4ccc(F)cc4)cc3)nc2s1` in the list: /, ?, /, 4.3%, /, /, -0.4%, -18.7%
# `O=C(CSc1nnc(CNC(=O)c2c(F)cccc2Cl)o1)NC1CCCC1` in the list: 10.7%, ?, 2.0%, /, -1.6%, -2.8%[46.1 µM], /, 3.5%
# `Cn1c(N)c(C(=O)COC(=O)Cc2ccc(Cl)cc2)c(=O)n(C)c1=O` in the list: 2.9%, 0.9%, 1.7%, /, /, -2.8%, /, -4.1%
# `COc1ccc2[nH]c(=O)c(CN(C(=O)c3ccccn3)c3ccccc3)cc2c1` in the list: -9.6%, 9.6%, -9.2%, -8.1%, -3.3%, -3.5%, 1.0%, -15.2%
# `COc1ccccc1OCc1n[nH]c(=S)n1Cc1ccccc1` in the list: 13.5%, /, -4.1%, /, /, 3.3%[46.1 µM], /, -18.1%

# The results go on:
SMILES,RE007 growth inh,Lassa entry inh,SARS PLpro yeast,Cruzain inh noDet,NS1 inh,MARV entry inh,Cruzain inh Det,2A StopGo
C=CCOc1c(CNc2ccc3[nH]c(=O)[nH]c3c2)cccc1OC,-6.2%,-7.5%,1.1%,/,2.1%,?,/,0.0%
Cc1ccc(C)c(NC(=O)CSc2nnc(C)n3c2cc2occc23)c1,/,-7.3%[46.1 µM],/,-3.3%,/,/,-1.0%,-20.6%
COc1ccc(CCCc2nnc(SCC(=O)Nc3ccc(Cl)cc3)o2)cc1,/,0.8%[46.1 µM],/,?,/,?,-1.2%,?
Nc1c(Br)cc2oc(-c3ccccc3)nc2c1Br,11.1%,?,14.6%,?,5.0%,-1.6%&-1.6%,-3.2%,40.7%[activator]
O=C(CSc1nc2ccccc2nc1Cc1ccc(Cl)cc1)N1CCc2ccccc21,/,9.2%[46.1 µM],/,0.2%,/,/,4.4%,0.0%
COc1ccc(N(C(=O)CNC(=O)c2ccco2)C(C(=O)NCC2CCCO2)c2ccc(OC)c(OC)c2)cc1 (stereo not drawn),-5.1%,-14.9%,1.9%,/,-3.8%,?,/,-5.7%
OC1(c2ccc(Cl)cc2)CCN(Cc2nc(-c3cnccn3)no2)CC1,5.1%,2.8%[46.1 µM],0.3%,/,4.0%,?,/,-6.4%
Oc1ccc(C=Nc2ccccc2-c2nc3ccccc3[nH]2)c(O)c1,-1.1%,?,-33.1%,-3.4%,-10.2%,-12.5%,-17.5%,17.0%
O=C1CC(=O)N2CCSC2=N1,20.3%,27.6%[46.1 µM],/,/,/,-11.6%[46.1 µM],/,-3.0%
COc1cccc(NC(=O)c2oc3ccccc3c2NC(=O)Cc2cccc(C)c2)c1,/,2.8%[46.1 µM],/,-11.2%,/,-26.8%[46.1 µM],-6.9%,0.0%
CCCCOc1ccc(C(=O)CCN2CCCCC2)cc1,?,-17.3%,-48.6%,-1.8%&-1.6%&-5.0%,-43.0%,?,-11.6%&-5.6%&-2.3%,-15.1%&-3.0%
CCc1cccc(NC(=O)C(NC(=O)C2CCCCC2)C(C)C)c1 (stereo not drawn),-2.9%,-3.9%[46.1 µM],-2.7%,/,/,2.1%[46.1 µM],/,8.9%
COc1ccc(NC(=O)COC(=O)CNC(=O)C2CCCCC2)cc1,-10.1%,-3.9%,0.3%,/,/,-20.9%[46.1 µM],/,2.2%
CC1CN(S(=O)(=O)c2cccc(C(=O)OC/C(O)=C(\C#N)c3nc4ccccc4[nH]3)c2)CC(C)O1 (stereo not drawn),-0.7%,-3.7%,1.6%,6.9%,16.3%,-22.7%,-3.5%,-8.7%
Fc1ccc(-c2nnc(SCc3cccnc3)o2)cc1,-18.1%,4.9%[46.1 µM],-0.7%,/,-3.9%,?,/,9.7%
Cc1cc(C)c2oc(=O)cc(CN3CCC(C)CC3)c2c1,4.8%,15.0%[46.1 µM],-0.2%,/,4.9%,-11.0%[46.1 µM],/,-14.2%
O=C(O)c1cc(C(F)(F)F)nc2c(C(F)(F)F)cccc12,-13.2%,/,-0.3%,-4.9%,-0.6%,/,-0.1%,-21.8%
O=C(NCc1ccccc1)N(Cc1cc2cc3c(cc2[nH]c1=O)OCO3)CC1CCCO1 (stereo not drawn),2.1%,-14.7%,3.2%,-6.1%,-5.4%,-3.1%,-7.6%,2.4%
CC(=O)c1cc2c(cc1NC(=O)CN1CCN(c3cccc(C(F)(F)F)c3)CC1)OCO2,2.8%,-13.7%,2.3%,30.0%,-15.2%,-24.5%,-11.8%,/
CCOc1ccccc1NC(=O)CSc1nnc(-c2cnccn2)n1CC,0.5%,0.4%,-2.6%,-0.2%,-7.2%,-27.4%,-5.0%,0.6%
CCCOc1ccc(NC(=O)CC2C(=O)N(c3ccc(F)cc3)C(=O)N2CC(C)C)cc1 (stereo not drawn),/,-14.3%[46.1 µM],/,-3.5%,/,/,-3.9%,-9.7%
CCOC(=O)C1=C(O)/C(=C/N(C)C)N=C1C,-9.2%,10.2%,1.0%,-12.2%,?,8.6%,-2.4%,8.6%
COC(=O)c1ccncc1N,-17.9%,12.2%[46.1 µM],-0.4%,/,0.4%,6.8%[46.1 µM],/,10.9%
Cc1ccc(C(=O)NCC(=O)Nc2cc(C)ccn2)cc1,-7.8%,15.1%,1.0%,/,/,?,/,22.2%
COc1ccc2oc(=O)c(C(=O)N3CCN(C(=O)c4ccco4)CC3)cc2c1,-4.7%,?,-3.0%,/,-4.3%,0.2%[46.1 µM],/,5.1%

# Rows are unselected; about 4.6% have a hit in one of these screens.
